HPGD inh = qHTS Assay for Inhibitors of HPGD (15-Hydroxyprostaglandin Dehydrogenase). Potency, µM, for the others: at the top dose activity change, negative = inhibition, usual class: inhibitors. 4.3% of 150,000 active. 15-hydroxyprostaglandin dehydrogenase [NAD(+)] (Homo sapiens), P15428. purified HPGD, NADH fluorescence kinetic, PGE2 substrate; active = well fitted inhibition curve with a large enough effect (not every such curve was filed as active); inconclusive = small, poorly fitted or top-dose-only effect, or another doubt; inactive = no such curve, though single readings can be large or run the other way;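 also: top concentration of the series not given in the record; plate controls included wells without enzyme; inactives centre near -10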
Target sequence (P15428 whole entry, looked up): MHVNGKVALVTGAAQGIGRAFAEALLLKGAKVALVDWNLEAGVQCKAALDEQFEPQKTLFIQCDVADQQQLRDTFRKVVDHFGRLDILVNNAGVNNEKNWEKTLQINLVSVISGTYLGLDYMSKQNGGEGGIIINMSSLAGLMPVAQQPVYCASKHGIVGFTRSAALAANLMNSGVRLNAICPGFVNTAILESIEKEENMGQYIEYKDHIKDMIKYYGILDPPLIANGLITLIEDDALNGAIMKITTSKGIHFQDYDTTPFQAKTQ
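20 nM HPGD preincubated 15 min at room temperature with compound in 50 mM Tris-HCl pH 8, 0.01% Tween 20. Started with 1 mM NAD+ and 30 uM prostaglandin E2; NADH fluorescence (360/450 nm) read 5 times over 30-s intervals, last minus first.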
Starred values were filed as active, the others as inactive; ? = inconclusive; & = joins results of further samples. % is scaled to controls: 0 for no effect and ±100 for the full control effect; potency is read from the fitted curve at half-maximal effect. The list is partial; the hit share may differ from the screen's.

SMILES	HPGD inh
O=C(NC1CCCc2ccccc21)c1ccc(CNc2c(N3CCOCC3)c(=O)c2=O)cc1 (configuration not stated)	-9.6%
N#Cc1ccccc1CSc1nc(O)cc(=O)[nH]1	-2.0%
CCOC(=O)C(Cc1ccccc1)NC(=O)CCc1c(C)nc2ncnn2c1C (configuration not stated)	-8.8%
CC1CC2(CCCCC2)Nc2c1ccc1ccccc21 (configuration not stated)	?
Nc1nonc1C(=Nc1ccc(Br)cc1)NO	?
CCOC(=O)C(=CNc1ccc2c(c1)nnn2-c1ccc(Cl)cc1)C(=O)OCC	?
Cc1ccc2nc(N3CCN(Cc4nnnn4C4CCCC4)CC3)c(C#N)cc2c1	-12.6%
NNC(=O)CN1C(=O)Nc2ccc(Br)cc2C1c1ccccc1 (configuration not stated)	0.0%
CO[C@@H]1/C=C\O[C@]2(C)Oc3c(C)c(O)c4c(O)c(cc(O)c4c3C2=O)NC(=O)/C(C)=C\C=C/[C@H](C)[C@@H](O)[C@H](C)[C@H](O)C(C)[C@H](OC(C)=O)[C@@H]1C (some centres not stated)	-12.6%
Cc1cccc(NC(=O)CSc2ncnc3nc[nH]c23)c1C	-7.3%
CN(C)c1ccc(N=Cc2nc(-c3ccccc3)oc2O)cc1	-11.6%
CC(C)COC(=O)Cn1cnc2ccc(Br)cc2c1=O	-2.7%
CCOC(=O)N1CCN(Cc2nc(-c3cccc(C)c3)no2)CC1	-2.5%
OCCN(CCO)CC(O)COCCC12CC3CC(CC(C3)C1)C2 (configuration not stated)	-4.8%
COC(=O)/C(C#N)=C1/SC=C(C)N1c1ccccc1	-16.9%
CCCCNC(=S)NNC(=O)c1cc(C)on1	-12.3%
Cc1ccc(/C=C2/SC(=S)N(CC(=O)Nc3ncc(Cc4ccc(C)cc4)s3)C2=O)cc1	-12.2%
CCOC(=O)CSc1cc(CS(=O)(=O)c2ccccc2)nc(-c2ccccc2)n1	-2.2%
COc1ccc(NC(=O)CSc2nc3ccccc3c(=O)n2CCCN2CCCCC2)c(OC)c1	-7.6%
COc1ccc(C2CC(=O)C3=C(C2)Nc2ccccc2N(C(C)=O)C3c2ccco2)cc1 (configuration not stated)	-17.1%
O=C(COC(=O)c1cccc(Br)c1)NCCc1ccc(F)cc1	-13.3%
COc1ccc(S(=O)(=O)NCCN2CCOCC2)c2ccccc12	0.7%
CC(=O)N1CCc2cc(C(=O)CN3CCN(c4cccc(Cl)c4)CC3)ccc21	-10.6%
CC1CCCCC1NC(=O)c1cn(C)c2ccc(S(=O)(=O)N3CCCC3)cc2c1=O (configuration not stated)	-1.9%
CCCC(=O)Nc1ccc2c(c1)C(=O)N(CCC(=O)O)C2=O	?
Cc1ccccc1CS(=O)(=O)Cc1ccc(C(=O)N2CCOCC2)o1	-6.4%
O=C1NC(=Nc2ccc(Cl)cc2)SC1Cc1cccc(Cl)c1Cl (configuration not stated)	-21.6%
COc1ccc(S(=O)(=O)N2CCCCCC2)cc1	-8.5%
O=C(COC(=O)c1ccccc1OCc1ccccc1Cl)NC1CC1	-2.1%
O=S(=O)(c1ccc2ccccc2c1)N(CC(O)CN1CCOCC1)c1ccccc1 (configuration not stated)	-5.8%
COc1ccc(NC(C)C(=O)N/N=C/c2ccccc2OCc2ccc(Br)cc2)cc1 (configuration not stated)	-18.6%
O=C(NCCN1CCOCC1)c1ccc2ccccc2c1	-1.8%
CC(NC(=O)c1ccccc1)(C(=O)O)C(=O)O	-11.8%
CC(C(=O)O)c1cccc(C(=O)c2ccccc2)c1 (configuration not stated)	?
O=C(CN1C(=O)c2cccnc2C1=O)c1ccccc1	-20.3%
Cc1ccc(-c2[nH]nc3c2C(c2ccc(OC(=O)N4CCOCC4)cc2)C(C#N)=C(N)O3)cc1 (configuration not stated)	?
CCC(C)NC(=O)c1c(-c2cc(Cl)c(OC)c(Cl)c2)noc1C (configuration not stated)	2.6%
O=C(Nc1ccc2c(c1)CCC2)C1COc2ccccc2O1 (configuration not stated)	-29.8%
CN(C(=O)COc1cc(=O)n(C)c2ccccc12)c1ccc(Br)cc1	-10.3%
CC(C)C(=O)Nc1cccc(NC(=O)c2cccc([N+](=O)[O-])c2)c1	-8.3%
CC(C)CCOc1ccc(C(=O)CCNC(C)C(=O)O)cc1 (configuration not stated)	-17.0%
CCOc1ccc(CCN2C(=O)C3C4C=CC(C4)C3C2=O)cc1OCC (configuration not stated)	-12.4%
Cc1ccc(S(=O)(=O)N2CCCC2C(=O)O)s1 (configuration not stated)	-3.1%
COc1cccc(NC(=O)c2cc(-c3cccnc3)nc3c(Cl)cccc23)c1	-24.6%
CCOc1ccc(C(C)=O)cc1Cn1nc(C(=O)O)c2ccccc2c1=O	-21.6%
COc1ccc(/C=C/C(=O)Nc2ccc(C34CC5CC(CC(O)(C5)C3)C4)cc2)cc1OC	-20.7%
O=C(CSc1nc2ccccc2nc1SCC(=O)N1CCCCC1)N1CCCCC1	2.51µM*
COc1ccc(C(=O)NC2CCN(S(=O)(=O)Cc3ccccc3)CC2)c(OC)c1	-1.2%
COc1ccc(COC(=O)NC2CCN(S(=O)(=O)c3ccc(OC)cc3)CC2)cc1	-4.6%
Cc1[nH]c2c(C)ccc(C)c2c1CC(=O)O	-2.2%

A stretch from the list above:
SMILES	HPGD inh
CCOc1ccc(C(C)=O)cc1Cn1nc(C(=O)O)c2ccccc2c1=O	-21.6%
COc1ccc(/C=C/C(=O)Nc2ccc(C34CC5CC(CC(O)(C5)C3)C4)cc2)cc1OC	-20.7%
O=C(CSc1nc2ccccc2nc1SCC(=O)N1CCCCC1)N1CCCCC1	2.51µM*
COc1ccc(C(=O)NC2CCN(S(=O)(=O)Cc3ccccc3)CC2)c(OC)c1	-1.2%
COc1ccc(COC(=O)NC2CCN(S(=O)(=O)c3ccc(OC)cc3)CC2)cc1	-4.6%
Cc1[nH]c2c(C)ccc(C)c2c1CC(=O)O	-2.2%

Going on with the list:
SMILES	HPGD inh
Cc1cccc(C)c1NC(=O)C(c1ccccc1)N1CCC1=O (configuration not stated)	-9.9%
Cc1ccc(NC(=O)CSCc2ccc(F)cc2)cc1	-10.7%
O=C1N/C(=C\c2ccc(N3CCOCC3)c(F)c2)C(=O)N1Cc1ccccc1	-10.3%
COC(=O)[C@@H]1C[C@H]2CC[C@H](O)C[C@H]2N1Cc1ccccc1OC(=O)c1cccs1	-15.1%
COc1nc(-c2ccccc2)ccc1-c1noc(-c2ccco2)n1	?
CCCCCC(=O)/C=C/[C@@H]1[C@@H](C/C=C\CCCC(=O)O)[C@@H](O)C[C@H]1O	-12.2%
CC(=O)Nc1nnc(SCC(=O)NC(C)(C)C)s1	-11.4%
CC(C)C1N=C2c3ccccc3N=C(SCC(=O)NCCc3ccc(S(N)(=O)=O)cc3)N2C1=O (configuration not stated)	?
O=C(c1cc2ccccn2n1)N1CCN(Cc2ccccc2)CC1	-19.1%
Cc1cc(OCC(=O)Nc2ccc(S(=O)(=O)N3CCN(C)CC3)cc2)ccc1Cl	-16.1%
CC(C)C(NC(=O)C12CC3CC(CC(C3)C1)C2)C(=O)O (configuration not stated)	-3.9%
O=c1nc(N2CCCCC2)nc(Nc2ccccc2)[nH]1	-14.4%
O=C(NC12CC3CC(CC(C3)C1)C2)c1ccccc1O	?
O=C(C[n+]1ccc(C(=O)N/N=C/c2ccc(Br)cc2)cc1)c1ccccc1	-18.6%
Cc1ccccc1NC(=O)Cc1nc(-c2ccc3ccccc3c2)cs1	-8.0%
O=C(Nc1cccnc1)c1ccc(COc2cc(Cl)ccc2Cl)o1	?
COc1ccc(C(=O)c2sc(Nc3cccc(OC)c3)c(C(=O)Nc3cccc(C)c3C)c2N)cc1	-27.2%
COc1ccc2[nH]c(=O)c(CN(CCc3ccccc3)Cc3nnnn3CC3CCCO3)cc2c1 (configuration not stated)	?
O=C(CCSc1ccccc1)Nc1nccs1	-10.0%
Cc1ccc(S(=O)(=O)Nc2nc(C)cc(-n3nc(C)cc3C)n2)cc1	-7.6%
O=C(Cc1cccs1)N1CCC(c2nc3c(nnn3Cc3ccccc3)c(=O)[nH]2)CC1	4.47µM*
CCOC(=O)N1CCN(C(=O)C2CCN(S(C)(=O)=O)CC2)CC1	-8.6%
C=CCc1cccc(C=Nc2cc(Br)ccc2O)c1O	-21.5%
Cc1ccc(CNC(=O)CN2CCN(Cc3ccc(C)cc3)C2=O)cc1	-5.8%
Cc1ccc(NC(=O)CSc2nnc(-c3ccncc3)o2)cc1	-19.1%
COc1cccc2c(=O)c(SC(F)(F)C(F)C(F)(F)F)c(C)[nH]c12 (configuration not stated)	?
O=C1C2C3C=CC(C3)C2C(=O)N1/N=C/c1cn(Cc2ccccc2)c2ccccc12 (configuration not stated)	-5.5%
COc1ccc(-c2nnn(CC(=O)N3CCN(c4ccccc4OC)CC3)n2)cc1	-4.0%
O=C(NCc1ccccc1)c1ccc(N2C(=O)C3CCCCC3C2=O)cc1 (configuration not stated)	-6.4%
COc1ccc(/C=N/NC(=O)c2ccccc2F)cc1CN1CCN(c2ccc(F)cc2)CC1	?
COc1ccc(/C=N/NC(=S)Nc2ccccc2)cc1COc1ccccc1F	-21.7%
CCN(C1CCCCC1)S(=O)(=O)c1ccc(C(=O)O)cc1	-4.6%
CCOC(=O)CSc1nnc(-c2cccc(Cl)c2)n1CC	-8.1%
COCc1[nH]nc2c1C(c1ccc(F)cc1F)C(C#N)=C(N)O2 (configuration not stated)	-9.7%
COC(=O)c1ccc(CSc2nnc(N)s2)cc1	-7.9%
COC(=O)CCCC1=CC2=CC(=O)C(C)(OC(=O)c3ccc(Cl)nc3)C(=O)C2=CO1 (configuration not stated)	-4.4%
CCc1nnc(NC(=O)CCC(=O)N2CCN(CCc3ccccc3)CC2)s1	-4.9%
Cc1ccc(NC2=CC(=O)CC(c3ccco3)C2)c(N)c1 (configuration not stated)	-18.0%
Cc1ccc(-n2c(-c3ccc(Br)cc3)c[n+]3c2CCc2ccc4cccnc4c2-3)cc1	-1.8%
CCOC(=O)c1c(/N=C/N(C)C)sc(/C=N/Nc2ccccc2)c1-c1ccc(Cl)cc1	-12.3%
O=C(CCc1ccccc1)NNC(=S)NC(=O)c1ccccc1	-26.0%
O=C(CN1CCOCC1)Nc1ccc(Oc2ccccc2)cc1	?
Cc1cccc(-c2nsc(SCC(=O)NCc3ccc4c(c3)OCO4)n2)c1	-6.6%
Cn1c(N)c(C(=O)COC(=O)c2cc(C(F)(F)F)nc3ccccc23)c(=O)n(Cc2ccccc2)c1=O	-13.2%&-21.1%
CCCC(=O)Nc1nc2n(n1)C(c1ccccc1)CC(=O)N2 (configuration not stated)	-8.8%
COC(=O)c1ccc(CN2CCN(Cc3ccc(C(=O)OC)o3)CC2)o1	-8.7%
CC1c2ccccc2SC(CCCN(C)C)c2ccccc21 (configuration not stated)	-5.5%
CCOC(=O)CSc1nc(-c2ccccc2)cc(C(F)(F)F)n1	-13.4%
COc1cc2c(cc1NC(=O)Nc1ccc(F)cc1)oc1ccccc12	?
Cc1nn(-c2nc3ccccc3[nH]2)c(N)c1-c1ccc(Cl)cc1	-22.4%

New compounds follow
SMILES	HPGD inh
COc1cc(CNc2nc(C)c([N+](=O)[O-])c(C)c2C#N)cc(OC)c1	-6.0%
CCOC(=O)N1CCN(c2cc(C)nc3nc(C)nn23)CC1	-8.8%
CC(C)c1ccc(OCC(=O)N(c2ccccn2)C2CCCCC2)cc1	-19.1%
CN(C)c1nc(N)nc(/C(C#N)=C/C2CC3C=CC2C3)n1 (configuration not stated)	17.8µM*
Clc1ccc(-c2cn3cccnc3n2)cc1Cl	?
CN(C)CCCNC1=CC(=O)OC12CCCCC2	1.8%
COc1ccc(C(=O)c2ccc(OC)c(N)c2)cc1N	-31.7%
CC(=C/c1ccccc1)/C=N/Nc1nc(N2CCCCC2)nc(N2CCCCC2)n1	-19.8%
COc1ccc(C(=O)Nc2cc(OC)nc(OC)n2)cc1	-16.1%
Cn1c(CSc2nc3ccccc3s2)nnc1SCC(=O)NCc1ccccn1	-10.7%

The closing 4 records of the section above are carried over, then new ones follow.
SMILES	HPGD inh
COc1ccc(C(=O)c2ccc(OC)c(N)c2)cc1N	-31.7%
CC(=C/c1ccccc1)/C=N/Nc1nc(N2CCCCC2)nc(N2CCCCC2)n1	-19.8%
COc1ccc(C(=O)Nc2cc(OC)nc(OC)n2)cc1	-16.1%
Cn1c(CSc2nc3ccccc3s2)nnc1SCC(=O)NCc1ccccn1	-10.7%
CC(C)N(C)CCOC(=O)c1ccc2c(c1)OCCO2	-10.7%
COc1cc(C(=O)Nc2c(C)cc(C)cc2C)c([N+](=O)[O-])cc1OC	-5.0%
Cc1ccc2[nH]cc(C(=O)CN3CCC4(CC3)OCCO4)c2c1	-9.3%
O=[N+]([O-])c1ccc(N2CCCCC2)nc1	-5.9%
Cc1cc(C(F)F)n2nc(C(=O)Nc3ccccc3F)nc2n1	-10.7%
C=C1OC(CO)(n2cnc3c(N)ncnc32)C(O)C1O (configuration not stated)	-7.8%
COc1cc(-c2cc3nc(C)c(C)c(=O)n3[nH]2)cc(OC)c1OC	-21.8%
COc1ccc(-c2csc(/C(C#N)=C\c3ccc(OC)c([N+](=O)[O-])c3)n2)cc1	-14.0%
CCCCCCOc1ccc(N2C(=O)CC(S/C(N)=N/N=C(\C)c3cccs3)C2=O)cc1 (configuration not stated)	-2.5%
CCOC(=O)c1cccc(NC(=O)CSc2nnc(C)n2Cc2ccccc2)c1	-3.8%
CCOc1ccc(-c2nnn(CC(=O)c3cc(OC)ccc3OC)n2)cc1	?
CCc1nc(C)c(C#N)c2cc(OC)c(OC)cc12	-20.4%
Cc1ccc(Nc2nc3nonc3[nH]c2=O)cc1C	-21.8%
CCC(C)NS(=O)(=O)c1ccc(NC(=O)c2c(-c3ccccc3)noc2C)cc1 (configuration not stated)	-9.5%

Source: PubChem
